Compound activity from PubChem.
NPYLR7 ag – mosquito NPYLR7 agonism; activation, % at 10 µM; HEK293T NPYLR7/Galpha15, GCaMP6s calcium fluorescence; 270,000 tested, 0.15% active; in the data active = activation above about 40%;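 also: 0% = vehicle and 100% = reference agonist at the receptor; some compounds past the cut are filed as inactive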
NPYLR7 ag max-min – further read-out of NPYLR7 ag, marked with its call; activation, %; measured here: Max-Min RFU normalised activation; some inactives read as strong as hits;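 span of the calcium signal over five minutes; 0% = vehicle and 100% = native peptide agonist; compound fluorescence can raise it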
Numbers without * were called inactive; & = joins results of further samples. The list is partial; rates above refer to the full screens.

smiles,NPYLR7 ag,NPYLR7 ag max-min
CCn1ncnc1CN1CCC(CNC(=O)c2ccc(C)nc2)C1 (stereo not given),7,0
Cc1ccc2oc(-c3ccc(NC(=O)CCCn4cncn4)c(C)c3)nc2c1,3,3
COc1ccccc1Nc1ncnc2sc(C)c(C)c12,-7,-9
CC(C)(O)C#Cc1ccc(C(=O)N2CCCC(CNS(=O)(=O)c3cccs3)C2)o1 (stereo not given),17,3
CCCn1cc(C(=O)N2CCCc3ccccc32)c2nn(-c3ccccc3)c(=O)c-2c1,5,3
N[C@@H](Cc1cc(I)c(Oc2ccc(O)c(I)c2)c(I)c1)C(=O)O,-6&2&-2,-11&-6&-6
O=C(c1cccc(N2C(=O)CCS2(=O)=O)c1)N1CCOCC1,-6,-9
COc1ccc(CCN2CC(NC(=O)NCc3ccccc3)CC2=O)cc1 (stereo not given),17,11
CC1(C)CN(C(=O)NCCc2cccnc2)CCS1,-23,-20
Cc1cccc(-n2[nH]c(-c3ccccc3F)c(-c3ccc(NC(=O)c4cccc(Cl)c4)cc3)c2=O)c1,22,29
CCCn1c(=O)c2c(nc3n2CCCN3CCc2ccccc2)n(C)c1=O,4,2
O=C1CSC(=S)N1N=Cc1ccc([N+](=O)[O-])o1,3,1

Whole records, quoted from the list. Order of screens: NPYLR7 ag | NPYLR7 ag max-min
Results for `N[C@@H](Cc1cc(I)c(Oc2ccc(O)c(I)c2)c(I)c1)C(=O)O` = -6&2&-2 | -11&-6&-6
Results for `CCCn1cc(C(=O)N2CCCc3ccccc32)c2nn(-c3ccccc3)c(=O)c-2c1` = 5 | 3

Next part:
smiles,NPYLR7 ag,NPYLR7 ag max-min
Nc1ccc(Oc2cccc(F)c2)c2ccncc12,0,-9
COc1cccc(C2CCc3nc(C(=O)O)cn3C2)c1 (stereo not given),11,9
Cc1ccc(C(=O)Nc2cccc(C(=O)O)c2)cc1S(=O)(=O)Nc1ccc(Cl)cc1,7,4
Cc1ccc(NC(=O)c2cccc(Cl)c2Cl)cc1-c1nc2ccccc2o1,-2,-15
Cc1ccc(C)c2c(C)c(C(=O)N3CCN(C)C(C(=O)O)C3)[nH]c12 (stereo not given),4,3
O=C(NC1CCOc2ccccc21)C1CCN(C(=O)NCc2ccco2)CC1 (stereo not given),9,4
Cc1ccc(C(=O)Nc2c(-c3ccc(C)cc3)nc3cc(C)ccn23)cc1,-1,5
O=C(CN1CCN(c2ccccc2)CC1)NCCc1c[nH]c2ccccc12,4,3
NC(=O)c1ccc(NC(=O)CSc2nnc3ccccn23)cc1,9,5
COc1ccc(OCC(=O)N=Nc2c(O)[nH]c3ccc(I)cc23)cc1,11,17
COc1ccc(NC(=O)c2cnn3c(C(F)(F)F)cc(-c4ccccc4)nc23)cc1OC,-12,-18
CCCCOC(=O)C1=C(C)NC2=C(C(=O)CCC2)C1c1cccc(F)c1 (stereo not given),-1,-6

(next part)
smiles,NPYLR7 ag,NPYLR7 ag max-min
O=C(C1CCCCC1)N1CCCC1C1CCNCC1 (stereo not given),1,-2
O=c1c2cnc3nc(-c4ccccc4)nn3c2ccn1Cc1cccnc1,2,3
CC1C(=O)N(CC(=O)NC(C)(C)C)C(=O)N1c1ccc(F)cc1 (stereo not given),-2,-3
Cc1ccsc1-c1cn(CCCN2CCCC(C(N)=O)C2)nn1 (stereo not given),31,22
CN(C)S(=O)(=O)c1ccc2nnn(OCc3cc(=O)n4ccsc4n3)c2c1,3,2
Cc1cc2c(c(=O)[nH]1)C(=O)O/C2=C\c1cc2c(cc1Br)OCO2,-3,-5
CNc1cc(-c2cccc(C(=O)N(C)C)c2)ncn1,3,0
Oc1oc(-c2ccccc2F)nc1C=Nc1ccc(Br)cn1,-3,-8
O=C(NCCN1CCOCC1)c1cccnc1Oc1ccc(Cl)cc1,-3,-10
CN(CCCN1c2ccccc2CCc2ccccc21)S(=O)(=O)c1ccc(F)cc1,-8,-12
CCN(CC)Cn1nc(Nc2cccc(Br)c2)sc1=S,4,5
CS(=O)(=O)c1ccc(-c2nccn2CCN2CCCOC2=O)cc1,14,4

The results go on.
smiles,NPYLR7 ag,NPYLR7 ag max-min
CC1C(=O)N(c2ccccc2-c2ccccc2)CCN1Cc1c(F)cccc1F (stereo not given),24,28
COc1ccc(CCN(C)C2CCCN(C(=O)c3ccccn3)C2)cc1OC (stereo not given),6,5
O=C(NC1CC2CCC(C1)N2CCc1ccccc1)c1cccc2c1-c1ccccc1C2=O (stereo not given),-1,5
COc1ccc(C(=O)N2CCN(CC(OCc3cccc(C)c3)c3ccc(Cl)cc3)CC2)cc1F (stereo not given),0,-3
COCC(=O)N(CC(=O)N(Cc1ccccc1)Cc1cccn1Cc1ccc(F)cc1)C(C)C,1,-4
Cc1nc(C(=O)N2CCC(CCC(=O)N3CCC(Cc4ccccc4)CC3)CC2)cs1,12,4
CN(CC(=O)Nc1ccc(F)cc1)C(=O)C12CC3CC(CC(C3)C1)C2,7,5
CCN(CC)c1onc(-c2ccccc2)c1CN(Cc1ccco1)C(=O)c1cccc(OC)c1,-4,8
COCc1nc(-c2ccc(CN3CCN(C(=O)c4cccc(F)c4F)CC3)cc2)no1,0,0
CCCCN(C)C(=O)c1ccc(NS(=O)(=O)c2ccc(Cl)s2)cc1,8,6
Cc1ncc2c(c1O)COC(C)OC2 (stereo not given),-7,-9
CCC1(CO)COC(c2ccco2)OC1 (stereo not given),5,10

Carrying on:
smiles,NPYLR7 ag,NPYLR7 ag max-min
O=C(c1ncncc1Cl)N1CC2CCC1C2 (stereo not given),13,10
O=C1/C(=C/c2ccc(-c3ccc(Br)cc3)o2)C=C(c2ccccc2)N1c1ccccc1O,0,7
Cc1ccc(S(=O)(=O)N(C)C)cc1C(=O)N1CCNC(=O)C1,-4,-4
Cc1cc2nc(Oc3ccc4ccccc4c3)c3ccccc3n2n1,3,1
O=C1CCN(C(=O)Cc2ccc(NS(=O)(=O)c3ccc(F)cc3)cc2)CC1,3,1
CN1CC2(CCCN(Cc3nnc(-c4cccc(F)c4)o3)C2)OC1=O (stereo not given),0,-3
O=[N+]([O-])c1ccc(C2c3cccn3CCCN2Cc2ccccc2[N+](=O)[O-])cc1 (stereo not given),1,7
Fc1ccc(CN2C3=NCCCN3c3ccccc32)cc1,8,4
C=CCNC(=O)C(NC(=O)c1ccc(OC)cc1)C1CCN(C(=O)CCc2ccccc2)CC1 (stereo not given),-5,1
Oc1ccc(-n2cnnn2)cc1,4,1
O=C(COC(=O)c1ccc(NS(=O)(=O)c2cccs2)cc1)Nc1ccc([N+](=O)[O-])cc1,-4,-8
Cc1cc(C(=O)NCc2cccnc2N2CCCN(C)CC2)n[nH]1,5,5

Some of these compounds in order of molecular weight, descending:
smiles,NPYLR7 ag,NPYLR7 ag max-min
O=C1CCN(C(=O)Cc2ccc(NS(=O)(=O)c3ccc(F)cc3)cc2)CC1,3,1
CN1CC2(CCCN(Cc3nnc(-c4cccc(F)c4)o3)C2)OC1=O (stereo not given),0,-3
Cc1ccc(S(=O)(=O)N(C)C)cc1C(=O)N1CCNC(=O)C1,-4,-4
Oc1ccc(-n2cnnn2)cc1,4,1

The listing continues:
| canonical_smiles | NPYLR7 ag | NPYLR7 ag max-min |
| --- | --- | --- |
| CCN(Cc1nc[nH]c1C)C1CCS(=O)(=O)C1 (stereo not given) | 9 | 1 |
| Cc1cc(C)c(-c2csc(NC(=O)c3ccc4c(c3)C(=O)N(C)C4=O)n2)c(C)c1 | -3 | -3 |
| O=C(CSCc1cc(Cl)c2c(c1)OCO2)NCc1ccc2c(c1)OCO2 | 7 | 7 |
| c1ccc(-c2nc3nnnn3c3ccccc23)cc1 | 0 | -3 |
| C=CCn1c(C2CCS(=O)(=O)C2)n[nH]c1=S (stereo not given) | -1 | 1 |
| COc1cc(CN2CCN3CCNC(=O)C3C2)ccc1N1CCCC1 (stereo not given) | 2 | 5 |
| Cc1c(C(=O)Nc2nccs2)cccc1-n1cnnc1 | 3 | -4 |
| Cc1cccc(C2c3[nH]c4ccccc4c3CCN2C(=O)c2cc(-c3cccn3C)n[nH]2)n1 (stereo not given) | 12&-8 | 3&-11 |
| CCn1c(SC)nnc1-c1cn(C)nc1OC | -1 | 1 |
| O=[N+]([O-])c1cc2c(cc1C=NNC(=S)NCC1CCCO1)OCO2 (stereo not given) | 2 | 8 |
| CSc1ncccc1C(=O)NC1CCC2CCCCC2C1 (stereo not given) | 5 | 0 |
| OCCC1CN(C2CCN(c3ccccc3)CC2)CCN1Cc1ccccc1F (stereo not given) | 14 | 2 |
| CC(C)CNc1ccc2c(n1)C(=O)N([C@H](C)C(=O)NCc1ccc(F)c(Cl)c1)C2 | 3 | 1 |
| Cc1c(C(=O)O)sc2cc(F)ccc12 | -2 | -4 |
| Cc1cccc(C(=O)N(C)Cc2ccccc2C(F)(F)F)n1 | 3 | 0 |
| Cc1cccc(Cn2c(=O)c3c(nc4n(CC5CCCO5)c(C)c(C)n34)n(C)c2=O)c1 (stereo not given) | -1 | 5 |
| O=C(c1ccc(CSc2ccccc2F)cc1)N1C2CCC1CC(Oc1cccc(C(F)(F)F)c1)C2 (stereo not given) | 4 | 2 |
| C=CCc1cccc(/C=N\NC(=O)CSc2nnc(-c3ccc(Br)cc3)n2CC(=C)C)c1O | -4 | 6 |
| CS(=O)(=O)CCC(=O)NC(Cc1ccccc1)c1ccccc1F (stereo not given) | 3 | -5 |
| CCOc1nc(-c2ccc(Cl)c(Cl)c2)n(-c2ccc(NC(=O)c3cccc(Br)c3)cc2)n1 | -5 | -1 |
| COc1ccccc1Cn1c(C)c(C(=O)Nc2cccc(Oc3ccccc3)c2)sc1=O | 14 | 9 |
| Nn1c(COc2ccccc2)nnc1SCc1cc(=O)[nH]c2ccccc12 | -11 | -16 |
| O=C(CCc1nnc(Cc2c[nH]c3ccccc23)o1)NC[C@H]1C[C@H]2C=C[C@H]1C21CC1 | 11 | -1 |
| COC(=O)C1CN(Cc2ccccc2C#N)C[C@@H](C)O1 (stereo not given in full) | -2 | -2 |
| O=C(O)c1cc(-c2ccccc2F)nc2cc(-c3ccccc3)nn12 | -9 | -3 |
| COc1ncccc1-c1ccc(F)cc1O | -3 | -6 |
| Cc1ccccc1NC(=O)CSC1=C(C#N)C(c2ccsc2)CC(=O)N1 (stereo not given) | -4 | -9 |
| COc1ccc2oc(=Nc3sc4c(c3C(N)=O)CCCC4)c(-c3nc4ccccc4[nH]3)cc2c1 | 5 | 6 |
| Nc1c(Cl)cc(NS(=O)(=O)c2ccc3c(c2)OCCO3)cc1Cl | 1 | 2 |
| CC1(C)C2CC[C@]3(C)C(C(=O)C=C4[C@@H]5C[C@@](C)(C(=O)O)CC[C@]5(C)CC[C@]43C)[C@@]2(C)CC[C@@H]1OC(=O)CCC(=O)O (stereo not given in full) | -12&-9 | -18&12 |

(listing goes on)
| canonical_smiles | NPYLR7 ag | NPYLR7 ag max-min |
| --- | --- | --- |
| CCOC(=O)C1=C(COC(=O)C=Cc2cccs2)NC(=O)NC1C (stereo not given) | 6 | 3 |
| COCc1cc(N2CCCC2)nc(SCc2ccc(C(=O)N3CCN(C)CC3)cc2)n1 | 7 | 15 |
| O=C(NCc1ccccn1)C1CCCN(C2CCN(C(=O)c3ccco3)CC2)C1 (stereo not given) | 10 | 8 |
| COc1ccc(-c2cc(N)n(-c3ccc(C(=O)Nc4cccc(OC)c4)cc3)n2)cc1 | 1 | 5 |
| O=C(c1ccc(F)cc1)N1CCN(C(=O)c2cc(O)cs2)CC1 | 9 | 5 |
| CC1CCCCC12NC(=O)N(CN1CCN(S(=O)(=O)c3cccs3)CC1)C2=O (stereo not given) | 13 | 18 |
| O=C(O)C1C2C=CC3(CN(Cc4cccs4)C(=O)C13)O2 (stereo not given) | 9 | 6 |
| CCOC(=O)C1=C(C)N=c2s/c(=C\c3cccc(OC)c3)c(=O)n2C1c1ccc(OC)c(OC)c1 (stereo not given) | 0 | -9 |
| CCC(C)(Oc1ccc(C2(c3ccc(OC(C)(CC)C(=O)O)cc3)CCCCC2)cc1)C(=O)O (stereo not given) | 1 | -7 |
| CN(C)CCCN(C(=O)CN1C(=O)c2ccccc2C1=O)c1nc2ccc(F)cc2s1 | -2 | -2 |
| CC(=O)c1cccc(NC(C)C(=O)N2CCC(C)CC2)c1 (stereo not given) | 2 | 0 |
| Cc1[nH]c2c(CN3CCNC(C(=O)NC4CC4)C3)cccc2c1C (stereo not given) | 10 | 11 |
| CC1c2[nH]c3ccccc3c2CCN1CCCN1CCOC1=O (stereo not given) | 6 | 5 |
| COc1ccc(S(=O)(=O)Nc2ccc(SC)cc2)cc1 | 15 | 7 |
| Cc1cc(S(C)(=O)=O)ccc1NC(=O)c1ccc(F)cc1F | 8 | 3 |
| COc1ccc(Cl)cc1N1CCNC(C)C1=O (stereo not given) | -4 | 1 |
| Brc1cccc(-c2nc(NCCN3CCOCC3)c3ccccc3n2)c1 | 16 | 7 |
| O=C1CC(c2ccccc2)N(c2ccnc(C3CC3)n2)CCN1 (stereo not given) | 5 | 2 |
| CCOC(=O)CON1C(=O)C(=O)N(OCC(=O)OCC)[C@H]2CCCC[C@H]21 | -9 | -10 |
| CC(C)N1CCCC(C)(C(=O)Nc2ccc3scnc3c2)C1 (stereo not given) | 1 | -2 |

2 of these compounds, set out differently:
CN(CCCN1c2ccccc2CCc2ccccc21)S(=O)(=O)c1ccc(F)cc1
  NPYLR7 ag = -8
  NPYLR7 ag max-min = -12

CCN(CC)Cn1nc(Nc2cccc(Br)c2)sc1=S
  NPYLR7 ag = 4
  NPYLR7 ag max-min = 5
